Mtb hypoxia rep: reduces hypoxia-regulated biosensor signal in M. tuberculosis | 300,000 tested, 0.1% active | M. tuberculosis hypoxia-regulated fluorescent reporter, fluorescence | fluorescence inhibition, % (test concentration not listed) | AID 1159583;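 active means 35 to 45% if threefold the growth effect, above 45% if 1.5-fold the growth effect; inactive means the rest, general growth blockers included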;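 further: wells of about 50 µL received 100 nL stock; 0% = vehicle wells and 100% = reference inhibitor wells; whole bacteria with a GFP reporter of the hypoxia response; strong numbers were not always called active; many hits fall short of the cut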
PrP UTR inh: suppresses PrP 5' UTR mRNA reporter expression; cell-based PrP 5' UTR mRNA reporter, plate reader; inhibition, % (test concentration not listed); 340,000 tested, 0.35% active;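 active means every replicate at 50% or more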;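 further: 0 = median of the neutral control wells; tested in H4 reporter cells; numbers are from one replicate; inactives centre near -14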
RN4220 kill: kills Staphylococcus aureus RN4220 | S. aureus RN4220 growth, OD600, 16 h | inhibition, % (no concentration beside the values) | 330,000 tested, 0.33% active | AID 1259311;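 active means z-score of -3 or lower and OD600 up to 0.18 on both plates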;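 further: plate controls were untreated cells for no effect and reference antibiotic for full effect; stock transfer was 100 nL into about 80 µL; one replicate is shown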
BJeLR viability: BJeLR cell viability loss; BJeLR (HRASV12) viability, CellTiter-Glo ATP luminescence, 48 h; reference of the scale not given here; inhibition, % (concentration not given with the values); AID 1554; 300,000 tested, 0.17% active;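 active means replicate mean above 50%; inconclusive means above 50% but judged a plate artefact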;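 further: 50 nL library stock added to about 25 µL; numbers are from one replicate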
Bead autofluor: counter-screen for toxin protease inhibitors: compound fluorescence; compound autofluorescence counterscreen, microsphere flow cytometry; active compounds read high; fluorescence intensity (no concentration beside the values); 360,000 tested, 3.1% active; AID 624483;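 active means at least 3 SD above the mean of all compounds, about 16000 in these data; inconclusive means too few beads counted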;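 further: 100 nL of 1 mM stock went into each well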
Sa ugtP lethal: kills S. aureus RN4220 lacking UgtP; S. aureus RN4220 ugtP deletion, OD600 growth, 16 h; some inactives read as strong as hits; growth inhibition, % (concentration not given with the values); 330,000 tested, 0.54% active;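 active means z-score under -3 and OD600 up to 0.15 on both plates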;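 further: plate controls were untreated wells for no effect and antibiotic for full effect; wells of about 80 µL received 100 nL stock; the first replicate is given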
Mtb hypoxia rep growth: second read-out of Mtb hypoxia rep, no call of its own (marks repeat the call); growth inhibition, %; measured here: M. tuberculosis growth (absorbance);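 0% = vehicle and 100% = reference antibiotic; read after six days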
Numbers without * were called inactive; ? = inconclusive; · = not tested or not shown.

SMILES | Mtb hypoxia rep | Mtb hypoxia rep growth | PrP UTR inh | RN4220 kill | BJeLR viability | Bead autofluor | Sa ugtP lethal
OCCC1CN(Cc2nc3c(s2)CCCC3)CCN1CCc1ccccc1 (configuration not stated) | 6 | 5 | -7 | -0.2 | 8 | 4782 | -1
CCCCN(C)C(=O)c1cccc(OC2CCN(CC(C)(C)C)CC2)c1 | 4 | 3 | -17 | 2.5 | 12 | 3661 | 5
COC(=O)c1ccc(C)c(NC(=S)NCc2ccc(Cl)cc2)c1 | 3 | 5 | -10 | -3.2 | -2 | 2157 | -19
O=C(NC(=O)c1ccccc1)Nc1ccc(Cl)cn1 | 10 | 6 | -73 | 1.6 | 3 | 5710 | 6
O=C(Nc1ccccc1)N1CCSc2cc(Cl)ccc21 | 6 | 7 | -28 | 2.3 | -4 | 20918* | -1
CCCc1cc(=O)[nH]c(SCCOc2ccc(Cl)cc2)n1 | -4 | 3 | -12 | 4.2 | 8 | 5016 | -4
Cc1cc(C)n2nc(C(=O)Nc3cccc(S(=O)(=O)N4CCOCC4)c3)nc2n1 | -3 | 7 | -20 | -0.3 | · | 5952 | 1
Cn1ccnc1C(O)(c1nnc(-c2ccccc2)o1)C(F)(F)F (configuration not stated) | 6 | -2 | -2 | 4.1 | -19 | 3533 | -5
CCCCn1c(N)c(N(Cc2ccccc2OC)C(=O)CCSC)c(=O)[nH]c1=O | 8 | 2 | -1 | 0.4 | -5 | 5064 | -1
COc1cccc(NC(=O)CN(C)S(=O)(=O)c2ccc3c(c2)n(C)c(=O)c(=O)n3C)c1 | 2 | 1 | -5 | 2.2 | 8 | 5485 | 3
COc1cccc(CC(=O)Nc2ncc(C)s2)c1 | 17 | 7 | -18 | 0.3 | 3 | 4171 | 9
CCc1ccc(NC(=O)N2CCN(c3ccc(F)cc3)CC2)cc1 | -10 | 2 | -18 | -3.6 | 1 | 2534 | -8
CC1CCN(C(=O)CNC(=O)CNS(=O)(=O)c2ccccc2)CC1 | 11 | 2 | -40 | 2.7 | -2 | 3644 | 1
CC(CN1CCCCC1)c1ccccc1 (configuration not stated) | 8 | 8 | -8 | 3.1 | -2 | 3881 | 11
Cc1ccccc1OCCC(=O)OCC(=O)NC1CC1 | 9 | 1 | -26 | 5.3 | 4 | 6230 | 9
COc1ccccc1C(=O)NC(C)c1cccc2ccccc12 (configuration not stated) | 1 | 0 | -15 | 3.4 | -2 | 3709 | 5
Cc1cc([N+](=O)[O-])ccc1NC(=O)c1csc(C)c1C | -1 | 5 | -53 | 6.3 | 10 | 6068 | -8
Cc1[nH]n(-c2ccccc2)c(=O)c1C=NN(c1ccccc1)c1ccccc1 | 7 | 5 | · | 9.1 | · | · | -13
COc1ccc2[nH]c3c(=O)n(/N=C/c4ccc(OC)c(CN5CCCC5)c4)c(C)nc3c2c1 | · | · | -10 | · | 16 | 3681 | ·
Cc1ccc(C2C(=C(O)c3ccc(Cl)cc3)C(=O)C(=O)N2CC2CCCO2)o1 (configuration not stated) | 1 | 5 | · | 8.0 | · | · | -8
Cc1cc(C)cc(NC(=O)COC(=O)CC2CCCC2)c1 | 14 | 6 | 4 | 6.2 | · | 2911 | 9
Cc1cccc(-c2cc(N)n(-c3ccccc3)n2)c1 | -5 | -3 | -152 | 3.5 | · | 5327 | -2
Cc1occc1C(=O)N(Cc1nc(-c2ccccc2)no1)C(C)C | -1 | 15 | -9 | 0.5 | 9 | 4446 | -1
N#CCN(CC#N)C(=O)C1c2ccccc2Oc2ccccc21 | · | · | -20 | · | 25 | 3985 | ·
CCOc1cc(NC(=O)c2cccs2)c(OCC)cc1NC(=O)c1ccccn1 | -14 | 9 | 2 | 5.6 | -1 | 2352 | -8

By substructure, the entries above with an NH in an aromatic ring (four)
SMILES | Mtb hypoxia rep | Mtb hypoxia rep growth | PrP UTR inh | RN4220 kill | BJeLR viability | Bead autofluor | Sa ugtP lethal
CCCc1cc(=O)[nH]c(SCCOc2ccc(Cl)cc2)n1 | -4 | 3 | -12 | 4.2 | 8 | 5016 | -4
CCCCn1c(N)c(N(Cc2ccccc2OC)C(=O)CCSC)c(=O)[nH]c1=O | 8 | 2 | -1 | 0.4 | -5 | 5064 | -1
Cc1[nH]n(-c2ccccc2)c(=O)c1C=NN(c1ccccc1)c1ccccc1 | 7 | 5 | · | 9.1 | · | · | -13
COc1ccc2[nH]c3c(=O)n(/N=C/c4ccc(OC)c(CN5CCCC5)c4)c(C)nc3c2c1 | · | · | -10 | · | 16 | 3681 | ·

(more compounds)
SMILES | Mtb hypoxia rep | Mtb hypoxia rep growth | PrP UTR inh | RN4220 kill | BJeLR viability | Bead autofluor | Sa ugtP lethal
COc1ccc(CCNC(=O)CN(C)S(=O)(=O)c2ccc(OC)cc2)cc1 | 5 | -2 | -6 | 2.9 | -7 | 3309 | 9
COc1ccc(NC(=O)CSc2nnc(-c3cccnc3)o2)cc1 | 11 | -8 | -12 | 3.9 | -2 | 21010* | 5
CC(C)C(=O)NCCc1nc(-c2ccccc2)no1 | 23 | 9 | -10 | 3.2 | -6 | 3667 | 2
Cc1ccc(S(=O)(=O)NCC(=O)OC(C)C(=O)NC(=O)NC2CCCCC2)cc1C (configuration not stated) | 2 | -1 | -16 | 4.8 | · | 6235 | 15
CCCCCCC1/C(=N\NC(=O)c2ccccc2)CCC1C(=O)OC (configuration not stated) | · | · | -10 | · | -11 | 3472 | ·
COc1ccc(CCNC(=O)COc2cccc3c2OC(C)(C)C3)cc1OC | -1 | 2 | -20 | 3.4 | -9 | 5089 | 1
CCOC(=O)NC(c1ccc(C(C)C)cc1)C(Cl)(Cl)Cl (configuration not stated) | 1 | -2 | -5 | 16 | 11 | 2483 | -9
CCOCc1[nH]c(=S)[nH]c(=O)c1Cc1ccc(OCC)cc1 | -11 | -1 | -12 | 1.4 | -5 | 4469 | -5
O=C(NCc1cccs1)C1CC1 | 11 | 9 | -8 | 1.4 | 9 | 4280 | 11
Cc1ccc(C)c(NC(=S)Nc2cccnc2)c1 | -8 | -4 | -18 | 3.4 | -9 | 3243 | 3
CCN(CC)CCn1c(SCC(=O)Nc2ccc3c(c2)CCC3)nc2ccccc2c1=O | 15 | 2 | · | 6.6 | · | · | 10
Cc1cccc(OC(=O)C2C(c3ccccc3)C(C(=O)O)C2c2ccccc2)c1 (configuration not stated) | 6 | -1 | 5 | 14 | -1 | 15795 | -12
Cc1ccc(NNC(=O)c2c(C)noc2C)cc1Cl | -18 | -8 | -9 | -0.6 | -1 | 3667 | -10
COc1cc(/C=C2\SC(=S)N(C(Cc3ccccc3)C(=O)O)C2=O)ccc1O (configuration not stated) | 10 | 1 | -5 | 13 | -4 | 3566 | 9
COc1cc(OC)cc(C(=O)NC(C(=O)Nc2ccc3c(c2)OCO3)C(C)C)c1 (configuration not stated) | -1 | -4 | -5 | 3.2 | · | 3579 | 7
O=c1nc2onnc2c(C=NO)[nH]1 | 9 | 8 | -7 | 2.0 | · | ? | 4
COc1ccccc1NC(=S)NCc1cccs1 | 5 | 3 | -2 | 3.8 | 7 | 2505 | 8
COCCN1C(=O)N(c2ccc(OC)cc2)C(=O)C1CC(=O)Nc1cccc(F)c1 (configuration not stated) | 16 | 8 | -13 | 3.0 | -3 | 3866 | 8
C/C(=N\NC(=O)c1c(Br)c(C)nn1C)c1cccc(NC(=O)c2ccccc2F)c1 | · | · | -17 | · | 1 | 2495 | ·
O=C1CCCCC1Sc1nnc(Nc2ccccc2)s1 (configuration not stated) | 2 | 12 | -99 | 7.8 | 2 | 4257 | -13
C=C(C)C(=O)N1CC2(CC(c3cccc(NC(=O)/C=C\C)c3)=NO2)C[C@H]1C(N)=O (some centres not stated) | · | · | -12 | · | -21 | 3547 | ·
CCCCNC(=O)COC(=O)c1cc(Br)ccc1Cl | 10 | 6 | -25 | 6.0 | 14 | 2039 | 3
Cn1c(=O)c(C(=O)CN2CCCCCC2)c(N)n(Cc2ccccc2)c1=O | 3 | 6 | -23 | 14 | 5 | 4686 | -66
CCOC(=O)CCP(=O)(O)C(O)c1ccccc1 (configuration not stated) | · | · | -4 | 2.5 | 1 | 2734 | -3
O=C(N/N=C/c1sc(N2CCCCC2)nc1-c1cccs1)C1CC1 | · | · | -30 | · | -6 | 2577 | ·

Other compounds follow:
SMILES | Mtb hypoxia rep | Mtb hypoxia rep growth | PrP UTR inh | RN4220 kill | BJeLR viability | Bead autofluor | Sa ugtP lethal
COc1ccc(-c2c(C)n([O-])c3c([n+]2=O)CCCCC3)cc1 | 11 | 2 | -19 | 2.4 | 6 | 2540 | 5
CCOC(=O)c1ccc(OCCOc2cccc(C)c2)cc1 | 15 | 8 | -8 | 6.2 | -5 | 3751 | 16
CC(C(=O)c1c[nH]c2ccccc12)N1CCOCC1 (configuration not stated) | -1 | -4 | -21 | 3.2 | 2 | 5884 | 7
Cc1ccc(NC2=C(Cl)C(=O)OC2OC(=O)c2ccccc2C)cc1 (configuration not stated) | -1 | 10 | -8 | -3.3 | -7 | 2261 | -1
CC(=O)Nc1cccc(NC(=O)CSc2nc(=O)n(CCCN3CCOCC3)c3c2CCC3)c1 | -3 | -2 | -18 | -0.5 | 9 | ? | 1
CCCCCCCN1C2=NCCCN2c2ccccc21 | 16 | 26 | -17 | 1.5 | 5 | 4584 | -1
O=Cc1cnc(N2CCN(c3ccccc3)CC2)s1 | 8 | 11 | 12 | -2.8 | -4 | 3341 | 1
O=C(CN1C(=O)C2CC=CCC2C1=O)OCCN1C(=O)c2ccccc2C1=O (configuration not stated) | -4 | -1 | -6 | -0.9 | 7 | 3711 | 5
Cc1ccc(S(=O)(=O)Oc2ccccc2/C=N/Nc2ccc(C(=O)O)cc2)cc1 | · | · | -14 | · | 4 | 3288 | ·
CCOC(=O)c1cnc(Nc2nc3ccccc3o2)nc1CN1CCN(C)CC1 | 2 | 1 | -49 | 4.0 | · | ? | -4
CCC/C=N/NC(=O)c1ccc(F)cc1 | · | · | -18 | · | 1 | 4454 | ·
O=C(Cc1ccc(Br)cc1)OCC(=O)N1CCCCCC1 | 3 | 10 | -12 | 0.9 | · | 3488 | 5
COc1ccc(NC(=O)NCCc2ccc(Cl)cc2)cc1OC | 17 | 6 | -4 | 1.7 | 1 | 3972 | 8
NC(=NCCc1c[nH]c2ccccc12)NC(=O)c1ccc(Cl)cc1 | -12 | -5 | 3 | -5.2 | -3 | 3866 | -11
O=C(CSc1nc2ccccc2c(=O)n1-c1ccc(F)cc1)NC1CCS(=O)(=O)C1 (configuration not stated) | 5 | 4 | -14 | 3.3 | · | 4118 | 2
COc1cc(CO)cc(-c2cc(CO)cc(OC)c2OC)c1OC | 8 | -4 | -17 | 6.0 | 4 | 2771 | 0
Cc1ccc(C)c(NS(=O)(=O)c2ccc(OCC(=O)NCc3ccccn3)cc2)c1 | 13 | 2 | -20 | 12 | 2 | 2161 | 6
CCOc1ccc(-c2csc(NC(=O)c3ccc(S(=O)(=O)N4CCc5ccccc5C4)cc3)n2)cc1 | 1 | 4 | -21 | 6.7 | -3 | 2316 | -18
CC(=O)NCc1ccc(S(=O)(=O)N/N=C/c2ccccc2)cc1 | · | · | 1 | · | 6 | 2460 | ·
O=C(CNCc1ccccc1)NCCCN1CCCC1=O | 2 | 0 | -30 | -1.9 | 6 | ? | 13
COc1cccc(C(=O)NCCCn2ccnc2)c1 | -6 | -4 | -9 | -0.5 | 5 | 3215 | -8
COc1cc(CN2CCNCC2)cc(OC)c1OC | 1 | 3 | -3 | -0.2 | 8 | · | 0
CC(C)(C)[C@]1(O)C[C@@H]2OC(=O)C[C@@]23C(=O)O[C@@H]2OC(=O)[C@@H](O)C213 (some centres not stated) | 7 | 10 | -14 | -5.7 | · | 3004 | 3
O=C(CSc1nnnn1C1CC1)Nc1ccc(S(=O)(=O)N2CCOCC2)cc1 | 7 | 6 | · | -2.6 | · | · | -2
O=S(=O)(Nc1ccc(-c2ccc3nncn3n2)cc1)c1ccccc1F | 9 | 5 | -23 | 7.7 | 7 | · | -3
Cc1cc(C)c(C)c(S(=O)(=O)N2CCC(C(=O)OCC(=O)NC3CCS(=O)(=O)C3)CC2)c1C (configuration not stated) | 11 | 8 | -20 | 4.3 | · | 2969 | 6

One compound at a time (already shown). Order of values: Mtb hypoxia rep	Mtb hypoxia rep growth	PrP UTR inh	RN4220 kill	BJeLR viability	Bead autofluor	Sa ugtP lethal
`O=S(=O)(Nc1ccc(-c2ccc3nncn3n2)cc1)c1ccccc1F` as listed: 9	5	-23	7.7	7	·	-3
`Cc1ccc(S(=O)(=O)Oc2ccccc2/C=N/Nc2ccc(C(=O)O)cc2)cc1` as listed: ·	·	-14	·	4	3288	·
`O=C(Cc1ccc(Br)cc1)OCC(=O)N1CCCCCC1` as listed: 3	10	-12	0.9	·	3488	5
